NPYLR7 ag = activates Aedes aegypti NPYLR7 receptor. HEK293T NPYLR7/Galpha15, GCaMP6s calcium fluorescence. activation, % at 10 µM. actives 0.15% (n = 270,000). AID 1259423; in the data active = activation above about 40%;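 note: 0% = vehicle and 100% = reference agonist at the receptor; some compounds past the cut are filed as inactive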
NPYLR7 ag max-min = further read-out of NPYLR7 ag, marked with its call; activation, %; measured here: Max-Min RFU normalised activation; some inactives read as strong as hits;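 span of the calcium signal over five minutes; 0% = vehicle and 100% = native peptide agonist; compound fluorescence can raise it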
* marks the source's active call; other numbers are inactive results; & = joins results of further samples.

Second line of a record – NPYLR7 ag, NPYLR7 ag max-min
1) CC1C=CC(C)N1C(=O)c1cc(N2CCN(c3cccc(C(F)(F)F)c3)CC2)nc2ccccc12 (stereo not given)
  -11, 4
2) COc1cccc(C(=O)N2CCN(Cc3cn[nH]c3-c3ccc(F)cc3F)CC2)c1
  21, 2
3) OC(CN1CCOCC1)c1ccc(-c2ccc(F)cc2Cl)cc1 (stereo not given)
  -7, -10
4) Cn1ccnc1SCc1cc(=O)c(OC(=O)c2ccc(Cl)cc2)co1
  -7, -8
5) Cc1nc(-c2ccoc2)n(CC(=O)NC2Cc3ccccc3C2)c1C
  0, -2
6) Cc1nonc1CN(C)Cc1cnc2c(-c3ccccc3)cnn2c1
  18, 6
7) N#Cc1ccc2nc([C@H]3CCN(C4CCOCC4)C3)[nH]c2c1
  -5, -11
8) CCC(C)C(=O)C(=O)N1CCc2c(cnc(C)c2CNC(=O)c2ccccc2F)C1 (stereo not given)
  21, 6
9) CCOC(=O)c1c(C)sc(Sc2ccccc2[N+](=O)[O-])c1OC(C)=O
  3, 2
10) Cc1ccc(OCc2nn(CN3CCC(C)CC3)c(=S)n2C)cc1C
  -7, -7
11) CC(OC(=O)C12CCC(=O)N1c1ccccc1S2)C(=O)NC1CCCC1 (stereo not given)
  2, 0
12) COCCCNC(=O)C(NC(=O)C1CC1)C1CCN(C(=O)c2cccs2)CC1 (stereo not given)
  0, 8
13) CCNC(=O)C1(C)CCCN(CC(=O)c2ccc(Br)cc2)C1 (stereo not given)
  2, 2
14) CCCCN(CC(=O)N(CCc1c[nH]c2ccccc12)Cc1ccccc1)C(=O)Nc1ccc(C)c(Cl)c1
  -2, 0
15) O=C(N[C@@H]1CCCCC1NC(=O)C1CCN(C(=O)c2ccc3ccccc3c2)CC1)c1ccccc1 (stereo not given in full)
  -1, 2
16) C=CCN(C#N)c1nc(NC(C)C)nc(NC(C)C)n1
  1, -3
17) Nc1cc(-c2cccc(Cl)c2)nn1-c1ccc(C(=O)Nc2cccc3c2CCCC3)cc1
  1, -5
18) Cc1cc(SCC(=O)NCCC#N)nc2c(C)cccc12
  16, 6
19) O=C(c1cnc2sccn2c1=O)N(Cc1ccccc1)c1ccccc1
  4, 0
20) Cc1nc(N)ncc1C(=O)Nc1cnc2n1CCCC2
  7, 3
21) COc1ccc2nc(SCC(=O)Nc3ccc(C(C)=O)cc3)[nH]c2c1
  -5, -13
22) Cc1ccc2nc(N3C(=O)c4cccc5cccc(c45)C3=O)sc2c1
  11, 11
23) CC(C)=CCC/C(C)=C/CNC(=O)c1cc(N2CCOCC2)nc2ccccc12
  9, 5
24) Cc1nc(-c2cccc(C(F)(F)F)c2)nc(N2CCN(C(=O)/C=C/c3ccccc3)CC2)c1Cc1ccccc1
  -3, 9
25) Cc1cccc(S(=O)(=O)N2CCN(Cc3cc(=O)c(OCc4ccc(-c5ccccc5C#N)cc4)co3)CC2)c1
  24, 8
26) CCCOc1nc(-c2ccc(OC)cc2)n(-c2cccc(NC(=O)c3ccc(OC)cc3)c2)n1
  7, 12
27) O=C(CN(C(=O)c1ccc(-c2ccccc2)cc1)C1CC1)N1CC(=O)N(c2ccc(F)cc2)C1
  8, 17
28) CC1CCc2sc(C(=O)Nc3ccccc3N3CCC(C(N)=O)CC3)cc2C1 (stereo not given)
  1, 0
29) Cc1cccc(CN(CCc2c[nH]c3ccccc23)Cc2nc(C(=O)NCC3CC3)co2)c1
  8, 16
30) COCCCn1c(-c2ccccc2F)nc2nc3ccccc3nc21
  2, -12

Reprinted: entries 27–30
Second line of a record – NPYLR7 ag, NPYLR7 ag max-min
27) O=C(CN(C(=O)c1ccc(-c2ccccc2)cc1)C1CC1)N1CC(=O)N(c2ccc(F)cc2)C1
  8, 17
28) CC1CCc2sc(C(=O)Nc3ccccc3N3CCC(C(N)=O)CC3)cc2C1 (stereo not given)
  1, 0
29) Cc1cccc(CN(CCc2c[nH]c3ccccc23)Cc2nc(C(=O)NCC3CC3)co2)c1
  8, 16
30) COCCCn1c(-c2ccccc2F)nc2nc3ccccc3nc21
  2, -12

Further records follow:
Second line of a record – NPYLR7 ag, NPYLR7 ag max-min
31) CC(=O)Oc1ccc(N2C(=O)c3ccccc3C2=O)cc1
  -7, -16
32) CCC(C(=O)N(CCOC)CC(=O)N(Cc1ccc(F)cc1)Cc1sccc1C)c1ccccc1 (stereo not given)
  10, 17
33) CCCn1nc(C)c(CNC2CCN(CC(C)C)CC2)c1C
  1, 0
34) O=C(CSc1nc(=O)n(CCCO)c2c1CCCC2)Nc1ccc([N+](=O)[O-])cc1
  -4, -13
35) COc1ccc(S(=O)(=O)N(Cc2cccc(OCc3nc(CO)cs3)c2)Cc2ccco2)cc1
  0, 14
36) CCOc1ccc(-c2ccc(=O)n(CCNC(=O)c3ccc(OC)cc3)n2)cc1
  -2, -3
37) CCOC(=O)CC(=O)N1CCN(c2nccc(-c3ccc(OCC)cc3)n2)CC1
  8, 9
38) NC(=O)c1cccc(-c2nccc3n[nH]c(C4CCCCC4)c23)c1
  7, 5
39) O=C(NCc1cccnc1)c1cc(NC(=O)C23CC4CC(CC(C4)C2)C3)ccc1N1CCC(Cc2ccccc2)CC1
  -4, -2
40) C#CCOCC(O)CN(Cc1ccsc1)CC1CCCO1 (stereo not given)
  20, 27

Shown with each value named: entries from further up
#33 CCCn1nc(C)c(CNC2CCN(CC(C)C)CC2)c1C
  NPYLR7 ag: 1
  NPYLR7 ag max-min: 0
#31 CC(=O)Oc1ccc(N2C(=O)c3ccccc3C2=O)cc1
  NPYLR7 ag: -7
  NPYLR7 ag max-min: -16
#17 Nc1cc(-c2cccc(Cl)c2)nn1-c1ccc(C(=O)Nc2cccc3c2CCCC3)cc1
  NPYLR7 ag: 1
  NPYLR7 ag max-min: -5
#9 CCOC(=O)c1c(C)sc(Sc2ccccc2[N+](=O)[O-])c1OC(C)=O
  NPYLR7 ag: 3
  NPYLR7 ag max-min: 2

Carrying on.
Second line of a record – NPYLR7 ag, NPYLR7 ag max-min
41) COc1ccc(/C=C2\C=C(c3ccccc3)N(c3ccc(Cl)cc3)C2=O)cc1Br
  3, 11
42) c1cncc(Nc2cccc(-c3ccc4ccccc4c3)n2)c1
  -9, -13
43) Oc1cccc(-c2nccc3n[nH]c(C4CCCCC4)c23)c1
  5, 3
44) COc1cccc(C2=N/C(=C\c3cccnc3)C(=O)O2)c1
  16, 4
45) COc1ccc(C(C)N)cc1Cn1cccn1 (stereo not given)
  -3, -4
46) CCCCN(C=O)c1c(CC)nc2c(OCCC3CCCCC3)cccn12
  4, 8
47) CCOc1cc(C=C(C#N)S(C)(=O)=O)ccc1OC
  6, 5
48) CC(C)C(=O)N1CCN(c2nc3ccccc3c3nnc(C4CC4)n23)CC1
  5, 2
49) CNC(=O)c1ccc(Cl)c(NCC(=O)Nc2ccccc2OC)c1
  4, 1
50) CCOC(=O)C1CCCN(C(=O)c2c(CC(C)C)nn(-c3ccccc3C)c2C)C1 (stereo not given)
  -13, -7

Going on with the list:
#	Compound	NPYLR7 ag	NPYLR7 ag max-min
51	O=C(Cn1cnc2c(nnn2Cc2ccccc2F)c1=O)N1CCc2ccccc21	8	12
52	CC(C)CNc1ccc2c(n1)C(=O)N([C@H](C)C(=O)NCc1ccc(F)c(F)c1)C2	1	0
53	CCOC(=O)C1CCN(C(=O)c2coc(CN(Cc3ccc(OCC)cc3)C(C)c3ccccc3)n2)CC1 (stereo not given)	16	10
54	CCn1cnnc1CNC(=O)[C@@H](NS(=O)(=O)c1ccccc1F)C(C)C	6	3
55	CN(C1CCC2(CC1)OCC(C)(C)CO2)S(=O)(=O)c1cccs1	-3	-7
56	COc1ccc(N2C(=O)CC(N3CCCC(c4nc5ccccc5s4)C3)C2=O)cc1 (stereo not given)	5	1
57	O=C(c1ccc(-c2ccccc2)cc1)N1CCC(c2nc(-c3ccc(Cl)cc3F)no2)CC1	8	2
58	O=C(NCc1ccccn1)C(C1CCCC1)N1CCN(C(=O)C2CC2)CC1 (stereo not given)	-8	-3
59	Cc1cc(-c2cc3c(cc2I)OCO3)on1	4	9
60	CC/C=C(/C)C(=O)NCCn1ccnc1	19	16
61	Nc1cc(=O)[nH]c(SCCOc2ccccc2F)n1	1	3
62	Cc1ccc(-c2nc(CSc3n[nH]c(N)n3)co2)cc1	8	6
63	CC(C)Nc1ccc(C(=O)NCCCc2ccccc2)cn1	1	3
64	c1cncc(CN2CCN(Cc3cc4n(n3)CCCNC4)CC2)c1	1	58
65	CNC(=O)NCC12CC3CC(CC(C3)C1)C2	-4	6
66	CCC(=O)N1CCC(=O)N(CCC#N)C[C@H]2CN(C)c3ccccc3[C@@H]21	27	27
67	CCn1c(-c2ccccc2)nnc1S(=O)(=O)Cc1c(C)noc1C	-3	-8
68	O/N=C1\CC(O)(C(F)(F)F)Oc2ccc(Cl)cc21 (stereo not given)	0	0
69	Cc1ccc(N2C(=O)/C(=C/c3ccc(Cl)cc3)C=C2c2ccccc2)c(Br)c1	7	24
70	Cc1oc(-c2cccc(F)c2)nc1CC(=O)N[C@@H](C)C(=O)N1CCC(C(=O)N2CCCCC2)CC1	14	11
71	COc1ccc(NC(=S)Nc2ccc(OC)c(OC)c2)cc1	17	9
72	CCC(C)Nc1cc(C)nc2c(-c3ccc(Cl)cc3)c(C)nn12 (stereo not given)	1	-2
73	COc1ccccc1-n1c(SCc2ccc(C(=O)NCc3ccncc3)cc2)nnc1-c1ccc([N+](=O)[O-])cc1	0	3
74	CC(Nc1oc(/C=C/c2ccccc2)nc1C#N)c1ccccc1 (stereo not given)	2	1

Continued (4 carried over from the part before).
#	Compound	NPYLR7 ag	NPYLR7 ag max-min
71	COc1ccc(NC(=S)Nc2ccc(OC)c(OC)c2)cc1	17	9
72	CCC(C)Nc1cc(C)nc2c(-c3ccc(Cl)cc3)c(C)nn12 (stereo not given)	1	-2
73	COc1ccccc1-n1c(SCc2ccc(C(=O)NCc3ccncc3)cc2)nnc1-c1ccc([N+](=O)[O-])cc1	0	3
74	CC(Nc1oc(/C=C/c2ccccc2)nc1C#N)c1ccccc1 (stereo not given)	2	1
75	COc1cccc(CN(C(=O)c2cscn2)C23CC4CC(CC(C4)C2)C3)c1	6	4
76	CCn1cc(CNC2CCN(c3c(F)cccc3F)C2)cn1 (stereo not given)	-1&3	-2&1
77	COCCCN(Cc1ccccc1F)CC(O)COC(C)(C)C (stereo not given)	3	8
78	CCN(CC(=O)NC(C)C)C(=O)COc1cccc(Cl)c1	-3	-4
79	Cc1nn(Cc2ccccc2)c(Cl)c1C(=O)N1CCC(C(N)=O)C1 (stereo not given)	-1	-5
80	CCS(=O)(=O)Oc1cccc(CN(CCOC)C(=O)Nc2ccc(Cl)cc2Cl)c1	0	8
81	CC(C)N1CCC(C(=O)NCCNS(=O)(=O)c2ccc(Cl)cc2)C1 (stereo not given)	20	11
82	O=C(CN(C(=O)CCc1ccccc1)C1CC1)N(CCc1c[nH]c2ccccc12)Cc1ccc(Cl)cc1	2	5

Shown as labelled records: 2 of the compounds above
80	CCS(=O)(=O)Oc1cccc(CN(CCOC)C(=O)Nc2ccc(Cl)cc2Cl)c1
  NPYLR7 ag: 0 | NPYLR7 ag max-min: 8

81	CC(C)N1CCC(C(=O)NCCNS(=O)(=O)c2ccc(Cl)cc2)C1 (stereo not given)
  NPYLR7 ag: 20 | NPYLR7 ag max-min: 11

Further entries follow:
#	Compound	NPYLR7 ag	NPYLR7 ag max-min
83	COc1ccc(-n2nnc3c(=O)n(CC#N)cnc32)cc1OC	-2	-9
84	COc1ccc(NC(=O)CSc2nc(N)c(C(=O)Nc3nccs3)s2)cc1	-3	-8
85	COc1cc(C(=O)NCC(=O)N=Nc2c(O)n(Cc3ccc4c(c3)OCO4)c3ccccc23)cc(OC)c1OC	-1	-6
86	Brc1ccccc1Oc1ccncc1	-3	1
87	C=CC[n+]1ccn(-c2nc3ccccc3nc2NS(=O)(=O)c2cccs2)c1	-1	4
88	CNc1cc(C(=O)OC2CCCC2OC)cc(Cl)n1 (stereo not given)	24	18
89	C=CCn1c(SCc2cccc(I)c2)nnc1-c1cc(-c2ccccc2)nc2ccccc12	0	11
90	CC(=O)c1ccc(S(=O)(=O)N2CCN(C(=O)CCl)CC2)cc1	15	7
91	Cc1ccsc1CN(CCN(C)C)C(=O)c1cn[nH]n1	2	1
92	Cc1ccc2nc(C)n(C3CCN(C(=O)c4ccc(C)s4)CC3)c2c1	17	10
93	Cc1onc(-c2ccccc2)c1C(=O)NC1C(=O)N2[C@@H]1SC(C)(C)[C@@H]2C(=O)O (stereo not given in full)	-3&12	-12&6
94	CCOC(=O)C1CCCN(CC(=O)N2N=C(c3ccccc3OC)CC2c2cccc(F)c2)C1 (stereo not given)	-3	5
95	O=C(NCc1ccccc1Cl)c1c(O)nc2sccn2c1=O	-3	5
96	Nc1ncnc2c1ncn2[C@@H]1O[C@H](CO)[C@@H](O)[C@@H]1O	-3&-7	-6&-13

High-throughput results deposited in PubChem by Fisher Drug Discovery Resource Center.

Some of the compounds tested; rates above refer to the full screens.
